# LANA-H2A inh: blocks KSHV LANA binding to histone H2A/H2B | cell-free LANA-H2A/H2B peptide, fluorescence polarization | 0.6% of 320,000 active | inhibition, % (test concentration not listed); in the data active = inhibition mostly above about 10%, no sharp cut-off; inactive = mostly below about 6.7%;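 note: stock transfer was 7.5 nL into about 10 µL; 0% = median of vehicle wells and 100% = median of positive control wells; one replicate is shown; the record names a cut of 25% in any replicate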
# HNF4A DNA FP: change in binding of human HNF4 alpha to DNA; P41235; HNF4a-FITC DNA binding, fluorescence polarization, 1 h; activity change, % at 10 µM; 0.3% of 360,000 active; AID 1224865; in the data active = activity change above about 30%, passing the limit was not always enough;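 note: controls were the assay level and a saturating level of protein; the project sought stronger binding though the title names inhibitors; some compounds called inactive have numbers as strong as hits; positive values seem to mean higher polarization but the record does not say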
# Target sequence (P41235 whole entry, looked up): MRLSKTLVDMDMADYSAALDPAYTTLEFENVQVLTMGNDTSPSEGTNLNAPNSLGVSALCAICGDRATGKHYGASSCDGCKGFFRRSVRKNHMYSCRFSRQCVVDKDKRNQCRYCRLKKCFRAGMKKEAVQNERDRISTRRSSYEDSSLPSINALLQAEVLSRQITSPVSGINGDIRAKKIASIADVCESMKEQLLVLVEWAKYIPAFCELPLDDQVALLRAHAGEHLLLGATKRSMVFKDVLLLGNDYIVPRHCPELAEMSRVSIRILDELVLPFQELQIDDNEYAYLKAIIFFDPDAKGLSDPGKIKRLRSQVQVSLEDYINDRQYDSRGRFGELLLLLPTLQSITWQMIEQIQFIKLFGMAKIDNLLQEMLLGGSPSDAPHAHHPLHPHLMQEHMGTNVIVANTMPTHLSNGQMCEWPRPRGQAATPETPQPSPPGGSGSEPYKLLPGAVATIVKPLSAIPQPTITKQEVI
# Beta2AR agonist: agonists of human beta-2 adrenergic receptor inducing internalization | P07550 | Am2.2-beta2AR cells, FAP receptor internalization, flow cytometry; reference of the scale not given here | response, % (concentration not given with the values) | 0.43% of 340,000 active | AID 504454;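 active = response above a set limit, near 3 SD of response in nonfluorescent compounds, cut at about 42% in these data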;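 note: stock transfer was 100 nL into about 11 µL; a reference agonist was the positive control; negative values mostly stem from fluorescent compounds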
# Ecoli growth: E. coli growth inhibition. Escherichia coli growth, OD600, 23 h; hits give low values. OD600 absorbance (concentration not given with the values). 0.21% of 330,000 active. AID 1053175;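 active = OD600 absorbance below the run mean of sample wells minus 3.6 SD, in any replicate, cut at about 0.56 in these data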;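 note: stock transfer was 300 nL into about 60 µL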
# A1 inh: inhibitors of the anti-apoptotic protein A1, read as caspase activation; caspase activation, % (concentration not given with the values); MEF A1-2A-BIM cells, Caspase-Glo 3/7 luminescence, 3 h; percent of clofoctol response, vehicle zero; 0.066% of 330,000 active;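 active = over half of replicate activation scores above 10%, or exactly half above 10 with the replicate mean above 10; inconclusive = replicate mean below 10 yet half the replicates above 10; inactive = over half of replicates below 10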;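 note: wells of about 30 µL received 50 nL stock; many hits fall short of the cut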
# Vif TR-FRET: inhibitors of Vif binding to APOBEC3G peptide, primary screen, biochemical, TR-FRET, GST-Vif 1-94, biotin-A3G peptide, dose response retest (AID 1117319) | TR-FRET GST-Vif / biotin-A3G peptide binding; higher % means a stronger effect; test concentration not given here; strong numbers were not always called active | inhibition, %, or IC50 in µM where a hit was titrated | 0.57% of 260,000 active;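 active = above the screen mean plus three standard deviations and confirmed in dose response; inconclusive = results disagree or hit not tested in dose response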;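 note: Vif residues 1-94 fused to GST binding biotinylated APOBEC3G peptide 110-148; 0% = full assay without inhibitor and 100% = GST in place of GST-Vif; retest series ran down from 100 µM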
# UCH37 inh: inhibitors of human deubiquitinating enzyme UCH37; purified proteasome/UCH37, Ub-AMC cleavage fluorescence; inhibition, % (no concentration beside the values); Q9Y5K5; AID 588478; 0.33% of 330,000 active;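 active = mean of two replicates above 20%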;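 note: 0% = compound-free wells with enzyme and 100% = wells lacking proteasome; stock transfer was 100 nL into about 20 µL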
# Target sequence (Q9Y5K5 whole entry, looked up): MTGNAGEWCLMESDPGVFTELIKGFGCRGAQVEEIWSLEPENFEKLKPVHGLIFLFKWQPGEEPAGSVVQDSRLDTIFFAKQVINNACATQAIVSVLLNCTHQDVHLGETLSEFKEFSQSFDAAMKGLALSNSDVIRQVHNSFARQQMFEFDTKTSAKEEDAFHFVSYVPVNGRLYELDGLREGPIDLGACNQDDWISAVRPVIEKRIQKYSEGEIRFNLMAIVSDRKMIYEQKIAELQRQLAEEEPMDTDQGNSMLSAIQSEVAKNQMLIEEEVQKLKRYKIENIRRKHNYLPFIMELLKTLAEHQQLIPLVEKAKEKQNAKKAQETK
#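 system = Proteasome-associated human UCH37 deubiquitinase | amount = 0.15 nM proteasome as dispensed | medium = pH 7.4 Tris-HCl (50 mM) with ovalbumin, ATP-MgCl2, DTT | incubation = 30 min preincubation with enzyme, 25 min cleavage at room temperature | detection = AMC fluorescence 355/460 nm | read-out basis = percent inhibition | controls = no-proteasome and no-compound wells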
# * marks the source's active call; other numbers are inactive results; i = inactive; u = inconclusive; x = no result given. This is a random part of the collection. About 2.1% of those tested had a hit in this group.
SMILES,LANA-H2A inh,HNF4A DNA FP,Beta2AR agonist,Ecoli growth,A1 inh,Vif TR-FRET,UCH37 inh
CCC(=O)Nc1cccc(-c2nnc(-c3ccccc3)o2)c1,-2.6,2.2,-8,0.7,-5.1,x,5.2
CN(C)c1ccc(C(=O)N2CC(=O)N(CCc3ccccc3)C(=O)C2)cc1,2.8,-0.7,7,0.7,0.2,-2%,2.5
COc1ccc(NC(=O)CSc2n[nH]c(-c3ccncc3)n2)c([N+](=O)[O-])c1,-0.4,0.8,8,0.7,0.4,0%,5.6
Cc1ccc(C(=O)NNC(=O)c2ccccc2OCc2c(C)noc2C)cc1,x,1.0,-1,0.62,x,4%,0.4
O=C1c2cccc(OCc3ccc(F)cc3)c2CCN1Cc1ccc(F)cc1,-6.5,1.0,-9,0.71,-0.3,x,3.4
Nc1cc(N)nc(SCC(=O)NCC(=O)Nc2ccc(F)c(F)c2F)n1,4.8,10,-7,0.73,1.0,2%,0.5
O=C(COc1ccccc1Cl)NC(=S)N1CCc2ccccc21,1.9,0.8,-7,0.67,0.0,-1%,3.9
COc1ccc(OC)c2c(C)cc(N3CCN(C(=O)c4ccc(F)cc4)CC3)nc12,-0.3,1.1,22,0.72,0.7,4%,-23
CCCCNC(=O)c1onc(CSc2cc(C)cc(C)c2)c1C(=O)O,0.8,2.2,-6,0.71,-0.6,-2%,0.1
COc1ccc(/C=C(\NC(=O)c2ccccc2)C(=O)NNC(=O)CCN2CCOCC2)cc1,-2.2,2.7,-1,0.64,1.9,9%,1.3
CCc1ccc(S(=O)(=O)N/N=C\c2ccc([N+](=O)[O-])o2)cc1,-0.8,-3.1,3,x,0.1,13%,x
O=C(NCc1ccc(-n2cccc2)cc1)c1cccc(F)c1,-1.9,-2.1,-9,0.69,0.4,-24%,0.5
Cc1ccc2c(CC(=O)Nc3nc(C)cs3)coc2c1,-5.4,1.1,-2,0.69,-0.9,2%,5.3
COc1cc(/C=N/NC(=O)CNC(=O)c2ccccc2)ccc1OC(=O)c1cccs1,3.3,-0.4,2,x,0.2,15%,x
CC(=O)Nc1ccc(/C=C/c2noc(-c3ccccc3O)n2)cc1,-1.0,-2.1,-5,0.7,-1.6,x,-24
Cc1ccc(CNC(=O)CCSCc2ccccc2C)cc1,-0.1,1.2,3,0.66,0.0,-5%,4.8
Cc1c(C(=O)N2CCN(c3ccc(F)cc3)CC2)oc2c1C(=O)CCC2,3.6,5.0,6,0.72,-0.1,-12%,0.6
Cc1ccc(C(=O)O)cc1NC(=S)NC(=O)c1ccc(-c2ccc(Cl)cc2)o1,3.5,1.3,9,0.76,-0.4,-7%,8.2
Cc1ccc2c(c1)[nH]c1c(=O)n(Cc3ccco3)cnc12,-8.1,-3.2,-3,0.72,-1.6,-4%,-2.7
Cc1cc(C(=O)Nc2ccccc2)c2ccccc2n1,3.2,0.1,-11,0.72,-0.5,x,2.0
COc1ccc2nc(NC(=O)C3CCN(S(=O)(=O)c4cccs4)CC3)sc2c1,-0.2,0.9,10,0.7,0.5,u,2.4
Cc1[nH]nc2c1C(CC(C)C)C(C#N)=C(N)O2 (stereo unspecified),7.6,-4.1,2,x,0.3,u,x
COc1cccc(C(=O)Nc2nnc(SCC(=O)NC3CC3)s2)c1,-9.0,-1.5,-1,0.65,0.6,-6%,5.8
COc1ccc(CCNC(=O)CCOc2ccc(C(C)(C)C)cc2)cc1OC,5.6,0.0,2,0.67,0.8,x,2.3
CCCCS(=O)(=O)CC(COc1ccccc1)OC(=O)c1ccccc1 (stereo unspecified),-0.2,1.9,1,0.77,0.1,1%,4.8
COCCCn1c(C(=O)NCCN2CCOCC2)cc2c(=O)n3cccc(C)c3nc21,0.8,1.2,1,0.71,0.5,-7%,i
C=CCNC(=O)CN(Cc1ccccc1)S(=O)(=O)c1ccc(C)cc1,-0.3,-3.3,-7,0.59,-0.1,3%,2.2
COc1cc(CNC(C)(C)CO)ccc1OCC(=O)Nc1ccc(Br)cc1,0.7,2.9,5,0.64,-0.9,-5%,2.4
O=C(c1ccc(NC2=NC3CS(=O)(=O)CC3S2)cc1)N1CCN(C(=O)c2ccco2)CC1 (stereo unspecified),2.5,1.0,-1,0.78,u,5%,1.5
CCOc1ccc(-n2c(=O)c3sccc3n(CC(=O)NCCc3ccc(OC)c(OC)c3)c2=O)cc1,2.1,1.7,-4,0.61,0.3,-5%,1.1
CCN(CC)C(=O)C1CC(=O)OC1(C)C (stereo unspecified),1.4,1.1,-7,0.67,0.2,16%,2.6
Cc1cccc(NC(=O)CCCN=C2NS(=O)(=O)c3ccccc32)c1C,0.2,0.0,-2,0.63,-0.3,-1%,2.4
COc1ccc(Nc2ncnc3sc(-c4ccccc4)cc23)cc1,-3.7,3.4,3,0.76,-0.3,-9%,-261
Cc1cc(NC(=O)CSc2nc(C(C)C)nc3sc(C)c(C)c23)no1,-20,-3.6,-9,0.66,0.7,-9%,1.8
COc1cccc(-c2noc(C3CCCN(C(=O)c4ccccc4OC)C3)n2)c1 (stereo unspecified),-2.8,-2.5,17,0.7,-4.1,x,2.3
COCCNC(=O)CN(c1ccc(F)cc1)S(=O)(=O)c1ccc2c(c1)OCCO2,-8.5,2.5,-1,0.66,-0.2,x,-0.5
Cc1ccc(N2C(=O)CC(N3CCN(C4CCc5ccccc5C4)CC3)C2=O)cc1 (stereo unspecified),-1.4,-1.9,4,0.7,0.4,1%,4.7
CCOC(=O)CSc1ccc(S(=O)(=O)N2CCCC2)cc1[N+](=O)[O-],2.7,9.0,0,0.64,0.5,5%,4.2
COC(=O)C1(S(=O)(=O)c2cc(Br)cc3c2N(C(C)=O)CC3)CC1,-2.6,0.7,-13,0.8,0.1,2%,1.3
CC1(C)CC(=O)C(C2=NC3(CCCCC3)Cc3ccccc32)=C(O)C1,-0.9,5.5,1,0.66,3.0,x,5.4
Cc1c(N2C(=O)c3ccc(Br)cc3C2=O)c(=O)n(-c2ccccc2)n1C,3.6,2.5,-12,0.7,-1.5,-4%,0.5
Cc1cc(C)nc(-n2nc(C)cc2NC(=O)c2ccc(F)cc2F)n1,2.1,1.0,-6,0.72,-0.4,-4%,2.2
O=C(CN1C(=O)C2CCCCC2C1=O)NC1CCCc2ccccc21 (stereo unspecified),x,1.0,-3,0.69,x,1%,-0.8
O=C(NCCCn1ccnc1)C(Cc1ccccc1)N1C(=O)c2ccccc2C1=O (stereo unspecified),-1.5,-0.1,-11,0.62,0.5,16%,-0.6
CCOC(=O)C1CCN(C(=O)COC(=O)c2c(C)c(CC)nc3ccccc23)CC1,-1.5,-1.0,7,0.7,-0.2,x,2.7
CCOc1cc(N2CCOCC2)c(OCC)cc1NC(=O)CN1CCC(Cc2ccccc2)CC1,-3.7,-0.1,13,0.74,0.1,11%,2.6
COc1cccc(/C=C2/C(=O)NN(c3ccc(C)c(C)c3)C2=O)c1,-1.3,1.9,6,0.68,-0.1,x,5.2
Cc1ccc(C(=O)NCC(=O)Nc2ccncc2)cc1C,-1.3,2.5,0,0.62,0.4,-9%,-0.7
O=C(C1CCC(=O)N(C2CC2)C1)N1CCC(Oc2ccccc2F)CC1 (stereo unspecified),-23,-2.0,2,0.68,1.0,20%,2.1
O=C(O)Cc1c[nH]c2ccc(O)cc12,4.1,-1.3,0,0.69,0.9,x,1.3
# Carrying on:
SMILES,LANA-H2A inh,HNF4A DNA FP,Beta2AR agonist,Ecoli growth,A1 inh,Vif TR-FRET,UCH37 inh
Cc1c(OCC(=O)NCC(O)c2ccccc2)ccc2c3c(c(=O)oc12)CCC3 (stereo unspecified),-0.3,7.7,4,0.67,0.2,x,-10.0
CC1CCCCN1S(=O)(=O)c1csc(C(N)=O)c1 (stereo unspecified),0.0,0.9,6,0.69,-1.2,0%,0.0
CC(C)C(NS(=O)(=O)c1ccccc1)C(=O)N1CCN(C(=O)c2ccco2)CC1 (stereo unspecified),0.1,-3.4,8,0.72,0.0,x,4.7
Cc1ccc(S(=O)(=O)N2CCC(C(=O)NCC3CCCCC3)CC2)cc1,0.1,0.0,-1,0.64,0.1,x,0.1
COc1ccc(Cl)cc1NC(=O)c1noc(C)c1[N+](=O)[O-],-3.7,0.5,2,0.71,2.0,x,1.2
CNc1sc(C(=O)c2cccs2)c(N)c1-c1nc2ccccc2s1,3.3,13,-4,0.79,-1.1,>100µM*,0.8
Cc1ccc(S(=O)(=O)Nc2ccc(O)c3ccccc23)c(C)c1,3.1,-0.2,24,0.61,0.9,15%,2.5
C[C@H](CO)N1C[C@H](C)[C@@H](CN(C)C(=O)Nc2ccc3c(c2)OCO3)Oc2c(NC(=O)c3ccncc3)cccc2C1=O,-3.9,5.4,-12,x,0.4,x,-0.5
O=C(CCn1c(=O)sc2ccccc21)NCc1cccs1,3.0,-3.0,-7,0.63,0.2,5%,0.9
Cc1cc(C(=O)Nc2cnc3ccccc3c2)ccc1[N+](=O)[O-],0.1,-6.2,0,0.76,-0.7,-6%,6.2
CCCCNC(=O)c1onc(CSc2cccc3ccccc23)c1C(=O)O,1.4,0.2,-6,0.66,-1.3,4%,-0.9
CN(C(=O)c1nn(C)c2c1CSc1ccccc1-2)c1ccc(F)cc1,-7.8,-0.4,-18,0.7,-0.3,x,3.5
CCc1ccc(NC(=O)NCc2ccccn2)cc1,-1.8,-1.1,-14,0.7,0.5,-3%,2.6
CCOC(=O)CC(NS(=O)(=O)c1ccc(OC)c(OC)c1)c1cccc([N+](=O)[O-])c1 (stereo unspecified),4.1,0.0,-4,0.72,0.5,3%,6.8
CCN1CCCc2cc(CN(CCN3CCOCC3)C(=S)Nc3ccc(OC)c(OC)c3)ccc21,-1.0,1.2,7,0.7,0.0,0%,0.8
Cc1ccc(C(=O)Nc2nc(C)c(C)s2)o1,-3.8,-1.4,5,0.69,-16,-1%,0.7
CCOC(=O)C1CCN(C/C=C/c2ccccc2OC)CC1,-1.7,-1.7,-5,0.75,0.3,23%,0.4
O=C(NN1C(=O)C2C3c4ccccc4C(c4ccccc43)C2C1=O)c1ccccc1 (stereo unspecified),0.5,1.0,5,0.65,1.0,-6%,0.8
FC(F)(F)c1nnc2ccc(-n3ccnc3)nn12,-2.2,-1.6,8,0.78,0.7,28%,7.2
CCCN(CCC)Cc1c(C(=O)N/N=C/CCc2ccccc2)nnn1-c1nonc1N,-0.1,-0.9,3,x,0.6,x,x
CCOc1ccc(NC(=S)NNC(=O)c2ccc(Br)cc2)cc1,-1.6,-1.1,12,0.68,-0.7,20%,0.9
O=C(NC1CC1)C1=C[C@@H](C2CC2)C[C@@H](OCCCCO)O1,3.4,-1.0,-9,x,-0.3,x,23*

# For reference, 2 of the compounds above:
SMILES,LANA-H2A inh,HNF4A DNA FP,Beta2AR agonist,Ecoli growth,A1 inh,Vif TR-FRET,UCH37 inh
CCOc1ccc(NC(=S)NNC(=O)c2ccc(Br)cc2)cc1,-1.6,-1.1,12,0.68,-0.7,20%,0.9
O=C(NC1CC1)C1=C[C@@H](C2CC2)C[C@@H](OCCCCO)O1,3.4,-1.0,-9,x,-0.3,x,23*

# Complete entries as entered above:
# Profile of FC(F)(F)c1nnc2ccc(-n3ccnc3)nn12 = LANA-H2A inh: -2.2; HNF4A DNA FP: -1.6; Beta2AR agonist: 8; Ecoli growth: 0.78; A1 inh: 0.7; Vif TR-FRET: 28%; UCH37 inh: 7.2
# Profile of CCc1ccc(NC(=O)NCc2ccccn2)cc1 = LANA-H2A inh: -1.8; HNF4A DNA FP: -1.1; Beta2AR agonist: -14; Ecoli growth: 0.7; A1 inh: 0.5; Vif TR-FRET: -3%; UCH37 inh: 2.6

# Assay outcomes from PubChem BioAssay.
